SARS PLpro yeast – qHTS of Yeast-based Assay for SARS-CoV PLP; S. cerevisiae expressing SARS-CoV PLpro, growth rescue; control for the full effect not named in the record; Potency, µM (doses to about 32.9 µM), for the others: top-dose activity, positive = growth rescue; actives 0.19% (n = 330,000); active means well fitted rising curve with a large enough effect; inconclusive means small, poorly fitted or top-dose-only effect; inactive means no such curve, though single readings can be large or run the other way; also: 0% is about no effect; nearly all actives have a fitted effect of over 55% in size; growth read by luminescence after 48 h
RE007 growth inh – qHTS Assay for Inhibitors of the HIV-1 protein Vpr; S. pombe RE007 Vpr strain, BacTiter-Glo ATP luminescence, 24 h; control for the full effect not named in the record; Potency, µM (top dose mostly 92.2 µM), without a hit: at the highest dose activity change, negative = less growth; actives 0.21% (n = 360,000); active = well fitted falling curve with a large enough effect; inconclusive = small, poorly fitted or top-dose-only effect; inactive = no such curve, though single readings can be large or run the other way;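 also: % is scaled to controls: 0 for no effect and ±100 for the full control effect; nearly all actives have a fitted effect of over 50% in size; the assay follows cell death caused by Vpr and the record does not say whether a fall means rescue or toxicity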
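Fission yeast RE007 carrying one integrated HIV-1 vpr copy, seeded at OD 0.01 in PMG+AL medium with 23 nL pinned compound. Grown 24 h at 30 degrees; viability read by BacTiter-Glo luminescence after 5 min.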
NS1 inh – qHTS Assay for Inhibitors of Influenza NS1 Protein Function; S. cerevisiae slowed by influenza A NS1, growth recovery by OD600; Potency, µM (doses to about 46.1 µM), without a hit: at the highest dose activity, positive = more growth; actives 0.4% (n = 270,000); AID 2326, 2010; active means well fitted rising curve with a large enough effect; inconclusive means small, poorly fitted or top-dose-only effect; inactive means no such curve, though single readings can be large or run the other way; also: nearly all actives have a fitted effect of over 50% in size
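Growth recovery, yeast-based: influenza A NS1 expressed in S. cerevisiae causes slow growth, and suppressors are detected by OD600. The parent strain without NS1 is used as positive control.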
Cruzain inh noDet – qHTS Assay for Promiscuous and Specific Inhibitors of Cruzain (without detergent); Cruzipain (Trypanosoma cruzi), P25779; purified cruzain, Z-FR-AMC fluorescence, no detergent; Potency, µM, for the others: max response, negative = inhibition, actives largely listed as inhibitors; actives 2.3% (n = 200,000); AID 1476, 2009;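 also: plate controls were enzyme without inhibitor for no effect and buffer without enzyme for full effect; nearly all actives have a fitted effect of over 40% in size; top concentration of the series not given in the record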
Target sequence (P25779 123-467 limits assumed): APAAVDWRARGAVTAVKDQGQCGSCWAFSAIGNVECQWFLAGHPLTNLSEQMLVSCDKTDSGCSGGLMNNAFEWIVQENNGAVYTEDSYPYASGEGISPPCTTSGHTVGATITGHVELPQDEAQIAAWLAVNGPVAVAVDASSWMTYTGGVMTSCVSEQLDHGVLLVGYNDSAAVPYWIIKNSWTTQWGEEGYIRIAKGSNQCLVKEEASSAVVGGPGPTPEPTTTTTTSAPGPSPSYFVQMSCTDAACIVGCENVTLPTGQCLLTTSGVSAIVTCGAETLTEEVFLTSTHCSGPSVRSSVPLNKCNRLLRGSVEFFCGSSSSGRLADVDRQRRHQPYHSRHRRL
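Purified cruzain at 1.5 nM, pre-incubated 15 min with compound at room temperature in 100 mM sodium acetate pH 5.5, 5 mM DTT, 0.00005% Triton X-100. Reaction started with 2 uM Z-FR-AMC; AMC fluorescence increase over 60 s gives rate.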
LASV entry inh – qHTS for Inhibitors of binding or entry into cells for Lassa Virus. Lassa virus pseudotype entry inhibition, cell reporter; control for the full effect not named in the record. Potency, µM (titrated, usually from 37.9 µM), without a hit: at the highest dose activity change, negative = inhibition, actives largely listed as inhibitors. AID 540256, 2011. actives 1.2% (n = 300,000); active means well fitted inhibition curve with a large enough effect; inconclusive means small, poorly fitted or top-dose-only effect, or effect the other way; inactive means flat fitted curve, though single readings scatter; tested in HEK293 cells; also: % is scaled to controls: 0 for no effect and ±100 for the full control effect; nearly all actives have a fitted effect of over 50% in size; luciferase read-out
Marburg entry inh – qHTS for inhibitors of binding or entry into cells for Marburg Virus. Marburg virus pseudotyped entry inhibition, cell reporter; control for the full effect not named in the record; about a third of the inactives were read at about 46 µM. actives 1.8% (n = 300,000). Potency, µM (doses to about 37.8 µM), for inactives: at the highest dose activity change, negative = inhibition, hits mostly inhibitors; active = well fitted inhibition curve with a large enough effect; inconclusive = small, poorly fitted or top-dose-only effect, or effect the other way; inactive = flat fitted curve, though single readings scatter; tested in HEK293 cells; about a fifth of its hits are not listed in these tables; also: % is scaled to controls: 0 for no effect and ±100 for the full control effect; luciferase read-out
Cruzain Triton – qHTS Assay for Promiscuous and Specific Inhibitors of Cruzain (with detergent) | Potency, µM, for the others: max response, negative = inhibition, usual class: inhibitors | actives 0.43% (n = 200,000) | purified cruzain, Z-FR-AMC fluorescence, 0.01% Triton;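 also: plate controls were neutral wells for no effect and buffer without enzyme for full effect; nearly all actives have a fitted effect of over 40% in size; top concentration of the series not given in the record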
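Sodium acetate buffer (100 mM, pH 5.5) containing 5 mM DTT and 0.01% Triton X-100 hosted 1.5 nM cruzain and test compound for 15 min at room temperature. Cleavage of 2 uM Z-FR-AMC was then tracked by fluorescence.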
StopGo reporter – High Throughput Screening for Foot and Mouth Disease Virus Antivirals; human cells with a luciferase reporter of 2A StopGo recoding; control for the full effect not named in the record; Potency, µM (doses to about 57.9 µM), for the others: top-dose signal change, negative = less light; actives 1.2% (n = 410,000); AID 1159524, 2015; active = well fitted falling curve with a large enough effect; inconclusive = small, poorly fitted or top-dose-only effect; inactive = no such curve, though single readings can be large or run the other way; tested in HEK293T cells; also: % is scaled to controls: 0 for no effect and ±100 for the full control effect; nearly all actives have a fitted effect of over 45% in size; luciferase light after 4 h
Numbers without * were called inactive; ? = inconclusive; / = not tested or not shown; & = joins results of further samples; [ ] = another dose, or the depositor's remark. Unless noted, calls follow the shape of the dose curve; as a rule, active = well fitted curve in the direction sought with a large enough effect; inconclusive = small, poorly fitted or top-dose-only effect, or another doubt; inactive = no such curve, though single readings can be large; an effect the other way counts as inactive or inconclusive. Potency is read from the fitted curve at half-maximal effect.

Values in the order – SARS PLpro yeast	RE007 growth inh	NS1 inh	Cruzain inh noDet	LASV entry inh	Marburg entry inh	Cruzain Triton	StopGo reporter
O=C1NN=C(c2ccccc2)C1Cc1ccccc1 (stereo not drawn)
    /	31%	/	/	9%	-12%	/	1%
O=C1CN(Cc2ccccc2)C(=NCc2ccco2)S1
    -2%	5%	13%	-3%	-4%	-6%	2.5%	-9%
O=C(Nc1ccccc1)N(CCCN1CCOCC1)Cc1cc2cc3c(cc2[nH]c1=O)OCCO3
    20%	-15%	-8%	2%	-13%	-21%&-21%	-5.2%	-24%
COc1ccc(-c2nnc(SCC(=O)N3CCCC3)o2)c(OC)c1
    -2%	-7%	2%	/	22%	31%[46.1 µM]	/	62%[activator]
CC(C)Nc1nc(NC(N)=S)nc(NC(C)(C)C)n1
    -1%	5%	-1%	/	3%	-13%[46.1 µM]	/	-24%
Cc1ccc(S(=O)(=O)N[C@@H](C)C(=O)N2CCC(C(=O)N3CCC[C@H]3C(=O)O)CC2)cc1
    -1%&1%	17%	8%	9%	-3%	-6%&3%	3.4%	13%
CC(NC(=O)CSc1n[nH]c(-c2ccccc2Cl)n1)c1nc2ccccc2n1C (stereo not drawn)
    /	/	/	-11%	2%[46.1 µM]	/	4.7%	-17%
CC(/C=N/NC(=O)c1cc(-c2ccc(Cl)cc2)nc2ccccc12)=C\c1ccco1
    12%[6.58 µM]	-2%	4%	7.9µM*	?	?	-2.0%	-5%
CCN(C(=O)COC(=O)CSc1ccc([N+](=O)[O-])cc1)C1CCS(=O)(=O)C1 (stereo not drawn)
    1%	?	-2%	/	4%	5%	/	-13%
Cc1ccc(NC(=O)C(Cc2ccccc2)NC(=O)c2ccco2)cc1 (stereo not drawn)
    16%	12%	5%	-24%	-1%	-6%	2.1%	14%
COc1cccc(NS(=O)(=O)c2ccc(NC(C)=O)cc2)c1
    6%	1%	-2%	4%	?	-21%	3.0%	-5%
Cc1ccc(S(=O)(=O)NCC2CCC(C(=O)NCCCOC(C)C)CC2)cc1 (stereo not drawn)
    18%	/	-5%	?	-5%[46.1 µM]	7%&7%	1.3%&0.4%	4%
CCOC(=O)C1CCCN(S(=O)(=O)c2cnc(Cl)c(Br)c2)C1 (stereo not drawn)
    3%	4%	9%	/	/	/	/	-3%
O=C(NC1CC1)c1ccc(F)cc1Cl
    -10%	-3%	2%	-2%	0%	4%	2.8%	30%
O=c1c2[nH]cnc2n(-c2ccccc2)c(=O)n1Cc1ccccc1
    -2%	-6%	7%	/	/	4%	/	-25%

(listing goes on)
Values in the order – SARS PLpro yeast	RE007 growth inh	NS1 inh	Cruzain inh noDet	LASV entry inh	Marburg entry inh	Cruzain Triton	StopGo reporter
CCc1ccccc1OCCSc1nc(-c2cccs2)nc2cc(=O)[nH]n12
    /	/	/	3.2µM*	2%[46.1 µM]	/	1.4%	-15%
COc1ccc(NC(=O)CSCC(=O)Oc2c(OC)cccc2OC)cc1
    1%	-4%	/	/	-6%	?	/	11%
COc1cccc(CNc2ccc3c(c2)ncn3C(C)C)c1OC
    -4%	1%	-35%	-19%	/	/	1.6%	22%
CCCCCc1ccc(-c2cn(Cc3ccc(C(=O)c4ccccc4)cc3)nn2)cc1
    1%	-9%	-8%	/	/	/	/	0%
CCO[C@H]1OC(C(=O)Nc2ccccc2)=C[C@@H](c2ccc(Br)cc2)[C@@H]1CCCO
    -3%	9%	-11%	/	/	/	/	-22%
CSc1ccccc1NC(=O)CSc1nncs1
    1%	-11%	/	/	-7%	12%	/	2%
COc1ccc(COn2c(=O)c(C)[n+]([O-])c3ccccc32)cc1OC
    -6%	4%	11%	-10%	15%	10%	-6.9%	-13%
COc1ccc(CCN(C)C(=O)c2cccc(S(=O)(=O)NCc3ccccc3)c2)cc1OC
    -2%	6%	-9%	/	-25%	?	/	-19%
COC(=O)C1c2ccccc2-c2ccccc21
    -3%	4%	/	/	3%	-6%[46.1 µM]	/	-3%
Nc1nc(SCc2ccccc2Cl)nc2nc3c(cc12)CCCC3
    ?	4%	4%	4%	-21%[14.3 µM]	-9%	-15%	-17%
COc1ccc(C)cc1S(=O)(=O)NNc1nc(C)cc(C)n1
    0%	10%	/	/	11%[46.1 µM]	-2%[46.1 µM]	/	-8%
O=C(CSc1nc2ccccc2c(=O)n1-c1ccccc1)N1CCCc2ccccc21
    2%	5%	?	6%	?	?	-5.1%	-21%
O=C(O)c1oc2ccccc2c1-n1cccc1
    -6%	35%	-18%	-5%	-26%	-13%	-0.5%	-6%
COc1ccc(F)cc1C(=O)C1CCCN(Cc2cn(C)c3ccccc23)C1 (stereo not drawn)
    0%	-4%	-3%	/	?	15µM*	/	-21%
CCOc1ccccc1/C=C/c1onc(C)c1S(=O)(=O)N1CCC(C(=O)N2CCCCC2)CC1
    /	/	/	-8%	?	/	1.1%	-2%

Further structures:
Values in the order – SARS PLpro yeast	RE007 growth inh	NS1 inh	Cruzain inh noDet	LASV entry inh	Marburg entry inh	Cruzain Triton	StopGo reporter
COc1ccccc1N1CCN(c2nc3ccc(C)cc3n3nnnc23)CC1
    /	/	/	-2%	-5%[46.1 µM]	/	-2.6%	-1%
CCCCn1c(N)c(N(C(=O)CSc2nnnn2-c2ccccc2C)C2CCCC2)c(=O)[nH]c1=O
    1%	-13%	/	/	-4%	1%	/	-28%
COC(=O)c1cc(OC)c(OC)cc1NC(=S)N1CCN(Cc2ccccc2)CC1
    8%	0%	9%	-6%	6%	-25%	2.1%	/
CCOc1ccc2[nH]c3c(NCC(C)C)ncnc3c2c1
    1%	-8%	-4%	/	/	/	/	-3%
CN1CCN(C(=O)c2cnn(-c3ccccc3)c2C2CCN(C(=O)OC(C)(C)C)CC2)CC1
    /	/	/	-5%	?	/	0.1%	-2%
Clc1ncn(CCOc2ccccc2)c1Cl
    -1%	22%	-6%	/	7%	14%	/	8%
CC(=NCC1CCCO1)c1c(O)n(C)c(=O)n(C)c1=O (stereo not drawn)
    0%	10%	-10%	3%	8%	2%	-3.6%	-13%
CCN(CC)C(=O)Cn1cc(C(=O)C(=O)NCCCn2ccnc2)c2ccccc21
    1%	12%	/	/	11%	21%[46.1 µM]	/	-22%
Cc1nc2cc(Cl)ccc2n1-c1ccccc1
    /	-15%	-7%	7%	-29%	-1%	2.3%	10%
Cc1nn(-c2ccccc2)c2[nH]c(C(F)(F)F)cc(=O)c12
    -11%	?	-95%	-9%	-1%	16%	-9.0%	-27%
O=C(COC(=O)Cc1c[nH]c2ccccc12)NC1CCCCC1
    0%	0%	/	/	-7%	?	/	3%
COc1cc(C)ccc1S(=O)(=O)N1CCCCCC1
    0%	5%	-8%	/	2%	?	/	26%
COC(=O)c1c(NC(=O)COc2cccc(C(F)(F)F)c2)sc2c1CCCC2
    /	/	/	-9%	22%[46.1 µM]	/	-0.8%	-18%
O=C(COc1cccc([N+](=O)[O-])c1)N/N=C/c1ccco1
    6%	-10%	-2%	/	/	/	/	-11%
COc1ccc(C2=NC3(CCCCCC3)N(CC(=O)Nc3ccc(C)c(C)c3)C2=O)cc1
    /	/	/	-8%	?	?	0.6%	-3%

Continued:
Values in the order – SARS PLpro yeast	RE007 growth inh	NS1 inh	Cruzain inh noDet	LASV entry inh	Marburg entry inh	Cruzain Triton	StopGo reporter
Cc1c(C(=O)N2CCc3ccccc3C2)sc2nc(-c3ccccc3)cn12
    -18%	13%	-41%	-12%	8%	-1%&-1%	-3.0%	6%
C=CCNC(=S)/N=c1/ccccn1Cc1ccccc1
    -7%	-16%	-18%	/	/	/	/	-23%
COc1ccc(NC(=O)c2sc3nc(C)c(C(=O)Nc4ccc(Cl)cc4)c(-c4ccc(Br)cc4)c3c2N)cc1
    /	/	/	-11%	3%[46.1 µM]	?	-0.5%	-8%
O=C(NOC(=O)c1cc(Br)ccc1Cl)c1cccs1
    -5%	19%	-1%	1%	26%	5%[46.1 µM]	0.1%	14%
Cc1ccc(NC(=O)c2ccc([N+](=O)[O-])cc2Cl)nc1
    -12%	-3%	15%	-1%	?	?	-4.1%	24%
COc1ccccc1OCCOc1ccc(/C=N/n2cnnc2)cc1
    -4%	7%	1%	0%	-2%	8%	1.0%	-19%
CC1CCc2c(nc3sc4c(c3c2N)CCCC4)C1 (stereo not drawn)
    -45%	-11%	-25%	-1%	-27%[46.1 µM]	11µM*	-15%	-8%
COc1cccc(Cn2c(Oc3cccc(C)c3)nc3c2c(=O)n(C)c(=O)n3C)c1
    -6%	-3%	-90%	?	?	?	-3.2%	-29%
Cc1ccc(NC(=O)C2CCN(S(=O)(=O)c3ccc(N4CCCC4=O)cc3)CC2)cc1Cl
    13%	4%	-22%	/	?	?	/	-28%
Oc1ccc2ccccc2c1CN1CC2CCC(CC2)C1
    /	-19%	/	/	-16%[46.1 µM]	8%[46.1 µM]	/	-11%
CN(C)C(CNC(=O)Cc1c(Cl)cccc1Cl)c1ccccc1 (stereo not drawn)
    3%	-4%	/	/	15%[46.1 µM]	?	/	2%
Cc1ccc(S(=O)(=O)/N=S(\C)CC2CC2(Cl)Cl)cc1 (stereo not drawn)
    12%	1%	?	-1%	2%	9%	13%	-2%
CCOC(=O)C1=C(C)C(c2ccc(OC)cc2)NC(=S)N1 (stereo not drawn)
    3%	-21%	13%	-2%	5%	-8%	3.5%	-21%
COC(=O)c1sc(C(C)(C)C)cc1CSc1ccccc1
    0%	-20%	0%	/	9%	-3%	/	?
O=C(NCC1CCCO1)C1c2ccccc2Oc2ccccc21 (stereo not drawn)
    0%	-10%	-4%	/	-1%	-12%[46.1 µM]	/	18%
CC(C)CCN1CCN(CC#Cc2ccccc2)CC1CCO (stereo not drawn)
    0%	0%	5%	/	/	/	/	-11%
O=C(Nc1cc(Cl)ccc1Cl)c1ccc(OC(=O)c2ccco2)cc1
    7%	14%	-5%	-17%	?	24%	0.3%	33%[activator]

Assay outcomes: PubChem BioAssay, National Center for Advancing Translational Sciences (NCATS)
